Vaccinia inh – blocks a specific stage of Vaccinia orthopoxvirus infection, primary screen, cell-based, single point | AID 1053133, 2014 | activity change (mCherry), % (concentration not given with the values) | Vaccinia-infected cells, mCherry/Venus stage reporter fluorescence; stronger effect = lower value; some inactives read as strong as hits | 89,000 compounds, 0.01% hits;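 active means mCherry past -33% and 40 or more points under the early reporter, replicates agreeing; inconclusive means past -33% without that gap or agreement; tested in A549 cells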;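 further: scaled between vehicle wells and reference inhibitor wells; 23 nL library stock went into each well; one replicate is shown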
Vaccinia inh Venus – recorded beside Vaccinia inh, whose call it bears; activity change (Venus), %; measured here: Venus reporter, other viral stage;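 negative = less Venus signal; first of two replicates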
The depositor's hits bear a star; ? = inconclusive; · = not tested or not shown. Only part of the results is shown; count on the stated rates, not on these rows.

SMILES | Vaccinia inh | Vaccinia inh Venus
O=C(c1cccc(F)c1)N1C[C@H]2[C@@H](c3ccccc31)[C@H](CO)N2C(=O)c1ccc(F)cc1 | 0 | 11
O=C(Nc1ccccc1)N1C[C@@H]2N[C@H](C1)C2c1ccc(-c2ccccc2)cc1 (some centres undefined) | ? | ·
O=C(NCC1CC1)[C@@H]1[C@@H](CO)[C@@H]2Cn3c(ccc(-c4ccccc4)c3=O)[C@@H]2N1Cc1cocn1 | 12 | 1
CO[C@H]1CN(C)C(=O)c2cc(NC(=O)C3CCC3)ccc2OC[C@H](C)NC[C@@H]1C | 13 | 9
O=C(NCc1ccccc1)[C@@H]1c2ccccc2C(=O)N(CC23CC4CC(CC(C4)C2)C3)[C@H]1c1ccc(CO)cc1 | -23 | -21
CCCN(C)C[C@H]1Oc2cc(/C=C/c3ccccc3)ccc2S(=O)(=O)N([C@H](C)CO)C[C@@H]1C | 17 | 15
C[C@H]1CN([C@@H](C)CO)C(=O)c2cc(N(C)C)ccc2O[C@@H]1CN(C)S(=O)(=O)c1ccc(Cl)cc1 | 5 | 1
CO[C@@H]1CN(C)C(=O)c2ccc(NC(=O)C3CC3)cc2OC[C@H](C)N(C(=O)Cc2ccccn2)C[C@@H]1C | 5 | 11
CC(=O)N1[C@@H]2Cn3c(cccc3=O)[C@H]1[C@@H](C(=O)NC1CCCC1)[C@@H]2CO | -2 | 6
Cc1ccc(-c2ccc3c(c2)O[C@@H](CN(C)Cc2ccncc2)[C@@H](C)CN([C@H](C)CO)S3(=O)=O)cc1 | ? | ·
O=C(C[C@H]1CC[C@H]2[C@@H](COC[C@@H](O)CN2Cc2cccc(C(F)(F)F)c2)O1)NCCc1ccccc1 | ? | ·
COC(=O)C(CC#Cc1ccc2c(c1)[C@]1(C(=O)N2)[C@H](c2ccccc2OCCO)N2[C@H](c3ccccc3)[C@H](c3ccccc3)OC(=O)[C@H]2[C@@H]1C(=O)N1CCc2cc(OC)c(OC)cc2C1)C(=O)OC | -8 | 4
C[C@H](CO)N1C[C@H](C)[C@@H](CN(C)S(=O)(=O)c2ccccc2)Oc2ccc(NS(=O)(=O)c3cccs3)cc2C1=O | 16 | 17
O=C(Nc1ccccc1F)N1CCCCN2[C@@H](CO)[C@H](c3ccc(C#Cc4cccnc4)cc3)[C@@H]2C1 | -16 | -26
CCC(=O)N(C)C[C@@H]1Oc2cc(-c3ccccc3F)ccc2S(=O)(=O)N([C@H](C)CO)C[C@@H]1C | 12 | 11
C[C@@H]1CN([C@@H](C)CO)C(=O)c2cc(NC(=O)NC3CCCCC3)ccc2O[C@@H](C)CCCCO[C@@H]1CN(C)Cc1ccc2c(c1)OCO2 | ? | ·
C[C@@H]1CN([C@@H](C)CO)C(=O)c2c(c3ccccc3n2C)-c2ccccc2CO[C@@H]1CN(C)C(=O)CCC(F)(F)F | -2 | 2
CCC(=O)Nc1ccc2c(c1)OC[C@H](C)N(C(=O)C1CCC1)C[C@H](C)[C@H](OC)CN(C)C2=O | 0 | -3
C[C@@H]1CN([C@H](C)CO)C(=O)c2cc(-c3cccc(C#N)c3)cnc2O[C@@H]1CN(C)C(=O)c1ccccn1 | 8 | 5
C[C@H](CO)N1C[C@H](C)[C@@H](CN(C)S(=O)(=O)c2ccc(F)cc2)OCCCC[C@H](C)Oc2ccc(NC(=O)Nc3ccc4c(c3)OCO4)cc2C1=O | -6 | -2
CC(C)NC(=O)Nc1ccc2c(c1)C(=O)N([C@@H](C)CO)C[C@@H](C)[C@@H](CN(C)Cc1ccc(-c3ccccc3)cc1)O2 | ? | ·
Cc1ccc(S(=O)(=O)Nc2ccc3c(c2)CC(=O)N([C@@H](C)CO)C[C@@H](C)[C@H](CN(C)C(=O)Nc2c(C)noc2C)O3)cc1 | 21 | 15
CN1C(=O)c2cc(NC(=O)Nc3ccccc3Cl)ccc2OC[C@@H]2O[C@H](CC(=O)NCCCN3CCOCC3)CC[C@@H]21 | 9 | 10
Cc1noc(C)c1NC(=O)N(C)C[C@H]1OCCCC[C@@H](C)Oc2ccc(NC(=O)NC3CCCCC3)cc2C(=O)N([C@@H](C)CO)C[C@H]1C | 24 | 11
C[C@@H]1CN([C@H](C)CO)C(=O)c2cccc(NC(=O)c3cnccn3)c2O[C@@H]1CN(C)Cc1ccccc1 | -5 | -11
Cc1ccccc1S(=O)(=O)N[C@H]1CC[C@@H](CCn2cc(Cc3ccccc3)nn2)O[C@@H]1CO | 21 | 23
CCCC#Cc1cnc2c(c1)C(=O)N([C@@H](C)CO)C[C@@H](C)[C@@H](CN(C)C(=O)c1ccc3c(c1)OCO3)O2 | -15 | 6
C[C@H]1CN([C@@H](C)CO)S(=O)(=O)c2ccc(Br)cc2O[C@H]1CN(C)Cc1ccccc1 | ? | 1
CN1C(=O)c2cc(NC(=O)C3CCCCC3)ccc2OC[C@@H]2O[C@H](CC(=O)NCc3ccccc3F)CC[C@@H]21 | -23 | -10
C[C@@H]1CCCCO[C@H](CN(C)C(=O)NC2CCCCC2)[C@H](C)CN([C@@H](C)CO)C(=O)c2cc(NC(=O)Nc3ccc(F)cc3)ccc2O1 | -5 | 1
O=C(Cc1ccccc1)N1CCCCN2[C@H](CO)[C@H](c3ccc(C#Cc4ccccc4)cc3)[C@H]2C1 | ? | ·
Cc1ccc(S(=O)(=O)N(C)C[C@H]2OCCCC[C@@H](C)Oc3ccc(NC(=O)c4ccncc4)cc3C(=O)N([C@@H](C)CO)C[C@H]2C)cc1 | -7 | -4
CCS(=O)(=O)Nc1ccc2c(c1)C(=O)N(C)[C@@H]1CC[C@@H](CC(=O)N3CCCCC3)O[C@H]1CO2 | 4 | 1
C[C@@H]1CCCCO[C@@H](CN(C)C(=O)Nc2ccccc2)[C@H](C)CN([C@H](C)CO)C(=O)c2cc(NC(=O)CCCN(C)C)ccc2O1 | 33 | 6
CC(=O)N1CC[C@H]2[C@@H]1c1cc(-c3cccc(F)c3)ccc1N(C)[C@H]2CO | 13 | 14
CCNC(=O)[C@@H]1[C@@H](CO)[C@@H]2Cn3c(ccc(-c4ccc(F)cc4)c3=O)[C@H]1N2Cc1ccccc1F | 0 | 6

Reformatted as comma-separated lines: entries from further up
structure,Vaccinia inh,Vaccinia inh Venus
C[C@H](CO)N1C[C@H](C)[C@@H](CN(C)S(=O)(=O)c2ccc(F)cc2)OCCCC[C@H](C)Oc2ccc(NC(=O)Nc3ccc4c(c3)OCO4)cc2C1=O,-6,-2
CC(C)NC(=O)Nc1ccc2c(c1)C(=O)N([C@@H](C)CO)C[C@@H](C)[C@@H](CN(C)Cc1ccc(-c3ccccc3)cc1)O2,?,·
Cc1ccc(S(=O)(=O)Nc2ccc3c(c2)CC(=O)N([C@@H](C)CO)C[C@@H](C)[C@H](CN(C)C(=O)Nc2c(C)noc2C)O3)cc1,21,15
CN1C(=O)c2cc(NC(=O)Nc3ccccc3Cl)ccc2OC[C@@H]2O[C@H](CC(=O)NCCCN3CCOCC3)CC[C@@H]21,9,10
Cc1noc(C)c1NC(=O)N(C)C[C@H]1OCCCC[C@@H](C)Oc2ccc(NC(=O)NC3CCCCC3)cc2C(=O)N([C@@H](C)CO)C[C@H]1C,24,11
C[C@@H]1CN([C@H](C)CO)C(=O)c2cccc(NC(=O)c3cnccn3)c2O[C@@H]1CN(C)Cc1ccccc1,-5,-11
Cc1ccccc1S(=O)(=O)N[C@H]1CC[C@@H](CCn2cc(Cc3ccccc3)nn2)O[C@@H]1CO,21,23
CCCC#Cc1cnc2c(c1)C(=O)N([C@@H](C)CO)C[C@@H](C)[C@@H](CN(C)C(=O)c1ccc3c(c1)OCO3)O2,-15,6
C[C@H]1CN([C@@H](C)CO)S(=O)(=O)c2ccc(Br)cc2O[C@H]1CN(C)Cc1ccccc1,?,1
CN1C(=O)c2cc(NC(=O)C3CCCCC3)ccc2OC[C@@H]2O[C@H](CC(=O)NCc3ccccc3F)CC[C@@H]21,-23,-10
C[C@@H]1CCCCO[C@H](CN(C)C(=O)NC2CCCCC2)[C@H](C)CN([C@@H](C)CO)C(=O)c2cc(NC(=O)Nc3ccc(F)cc3)ccc2O1,-5,1
O=C(Cc1ccccc1)N1CCCCN2[C@H](CO)[C@H](c3ccc(C#Cc4ccccc4)cc3)[C@H]2C1,?,·
Cc1ccc(S(=O)(=O)N(C)C[C@H]2OCCCC[C@@H](C)Oc3ccc(NC(=O)c4ccncc4)cc3C(=O)N([C@@H](C)CO)C[C@H]2C)cc1,-7,-4
CCS(=O)(=O)Nc1ccc2c(c1)C(=O)N(C)[C@@H]1CC[C@@H](CC(=O)N3CCCCC3)O[C@H]1CO2,4,1

Continued.
SMILES | Vaccinia inh | Vaccinia inh Venus
C[C@@H]1CN([C@@H](C)CO)C(=O)c2cc(NS(C)(=O)=O)ccc2O[C@H]1CN(C)C(=O)Nc1ccccc1 | 8 | 1
C[C@@H]1CN([C@H](C)CO)C(=O)c2ccccc2-c2ccccc2CO[C@@H]1CN(C)Cc1ccc(O)cc1 | 9 | 1
C[C@H](CO)N1C[C@H](C)[C@@H](CN(C)C)Oc2cc(-c3cccc(C#N)c3)ccc2S1(=O)=O | 30 | -2
C[C@@H]1CN([C@@H](C)CO)C(=O)Cc2cc(NC(=O)CCCN(C)C)ccc2O[C@@H]1CN(C)Cc1ccc(Oc2ccccc2)cc1 | ? | ·
CN1c2ccc(-c3cccc(C#N)c3)cc2[C@@H]2[C@@H](CCN2C(=O)C2CCCC2)[C@@H]1CO | ? | ·
COc1ccc(S(=O)(=O)N(C)C[C@@H]2Oc3ccc(NC(=O)C4CCCCC4)cc3CC(=O)N([C@H](C)CO)C[C@H]2C)cc1 | -3 | -2
N#C[C@H]1[C@@H](c2ccc(-c3ccccc3F)cc2)[C@@H](CO)N1C(=O)C1CCOCC1 | -3 | -3
C[C@@H]1CN([C@@H](C)CO)C(=O)Cc2cc(NC(=O)Nc3ccc4c(c3)OCO4)ccc2O[C@@H]1CN(C)S(=O)(=O)c1ccc(F)cc1 | -2 | 1
N#C[C@H]1[C@H](c2ccccc2-c2ccc(F)cc2)[C@@H](CO)N1C(=O)NC1CCCCC1 | 12 | 11
O=C(C[C@H]1C=C[C@@H](NC(=O)C2CCOCC2)[C@@H](CO)O1)Nc1ccccc1 | 17 | 11
O=C(NCC1CC1)[C@H]1[C@H](CO)[C@H]2Cn3c(cccc3=O)[C@H]2N1C(=O)CC1CC1 | 9 | 8
CN1C(=O)c2cc(NC(=O)C3CCCCC3)ccc2OC[C@@H]2O[C@@H](CC(=O)NCC3CCCCC3)CC[C@@H]21 | 4 | -8
C[C@H](CO)N1C[C@H](C)[C@@H](CN(C)S(=O)(=O)c2ccc(Cl)cc2)OCCCC[C@H](C)Oc2ccc(NS(C)(=O)=O)cc2C1=O | -12 | -2
CN1[C@@H]2Cn3c(ccc(C4=CCCCC4)c3=O)[C@H]1[C@@H](C(=O)NCc1cccc(F)c1)[C@@H]2CO | -15 | -18
O=C(c1ccc(F)cc1)N1C[C@H]2[C@@H](c3ccccc31)[C@@H](CO)N2C(=O)c1ccccc1 | 11 | 3
C[C@@H]1CCCCO[C@H](CN(C)Cc2ccccc2)[C@H](C)CN([C@@H](C)CO)C(=O)c2cc(NC(=O)Nc3ccc(C(F)(F)F)cc3)ccc2O1 | ? | ·
Cc1ccc(-c2cnc3c(c2)C(=O)N([C@@H](C)CO)C[C@H](C)[C@H](CN(C)C)O3)cc1 | 18 | 4
C[C@H]1CN([C@@H](C)CO)C(=O)c2cccc(NC(=O)c3cnccn3)c2O[C@H]1CN(C)C | 15 | 5
C[C@@H]1CN([C@H](C)CO)C(=O)CCCn2nncc2CO[C@@H]1CN(C)S(=O)(=O)c1cn(C)cn1 | 8 | 14
Cc1ccc(S(=O)(=O)N[C@H]2CC[C@@H](CC(=O)NCCc3ccncc3)O[C@@H]2CO)cc1 | 4 | 11
C[C@H]1CN([C@@H](C)CO)S(=O)(=O)c2ccc(Br)cc2O[C@@H]1CN(C)C(=O)CCN1CCCCC1 | -21 | -14
COc1ccc(C(=O)Nc2ccc3c(c2)C(=O)N(C)C[C@@H](OC)[C@@H](C)CN(C(C)=O)[C@@H](C)CO3)cc1 | -2 | 6
CN(C)C(=O)c1ccc(-c2ccc([C@@H]3[C@@H](CO)N(S(C)(=O)=O)[C@H]3C#N)cc2)cc1 | -11 | -6
C[C@H](CO)N1C[C@H](C)[C@H](CN(C)Cc2ccc(-c3ccccc3)cc2)Oc2c(NC(=O)NC3CCCCC3)cccc2C1=O | ? | ·
CN1CCN(C(=O)C[C@@H]2C=C[C@@H](NC(=O)Nc3ccccc3F)[C@@H](CO)O2)CC1 | -9 | -2
COc1ccc(CN(C)C[C@@H]2OCCCC[C@@H](C)Oc3ccc(NC(=O)C4CCCCC4)cc3C(=O)N([C@H](C)CO)C[C@H]2C)cc1 | ? | ·
CCC(=O)N[C@H]1CC[C@@H](CCn2cc(-c3cccc(OC)c3)nn2)O[C@H]1CO | -3 | -2
COc1ccc(S(=O)(=O)N[C@@H]2CC[C@H](CC(=O)NCCc3ccncc3)O[C@@H]2CO)cc1 | 0 | 4
CN1C(=O)c2cc(NC(=O)Nc3ccc(Cl)cc3)ccc2OC[C@H]2O[C@H](CC(=O)NCCN3CCCCC3)CC[C@H]21 | 10 | 12
Cc1noc(C)c1NC(=O)N(C)C[C@H]1Oc2ccc(NC(=O)Nc3ccc(F)cc3)cc2CC(=O)N([C@H](C)CO)C[C@@H]1C | 33 | 21
CC(C)NC(=O)Nc1ccc2c(c1)C(=O)N([C@H](C)CO)C[C@@H](C)[C@@H](CN(C)Cc1ccncc1)OCCCC[C@@H](C)O2 | 11 | 6
O=C(C[C@@H]1C=C[C@H](NC(=O)c2ccc(F)cc2)[C@@H](CO)O1)NCc1ccncn1 | -4 | 8
C[C@H](CO)N1C[C@H](C)[C@H](CN(C)Cc2cccc(C(F)(F)F)c2)Oc2ncc(-c3cc4ccccc4o3)cc2C1=O | ? | ·
C[C@H]1CN([C@@H](C)CO)C(=O)c2cc(NS(=O)(=O)c3cccs3)ccc2O[C@H]1CN(C)CC1CCCCC1 | 7 | 1
COCC(=O)N(C)C[C@@H]1Oc2cc(C#Cc3cccnc3)ccc2S(=O)(=O)N([C@H](C)CO)C[C@H]1C | 8 | 0
